RecA splice inh: inhibitors of M. tuberculosis RecA intein splicing. inhibition, %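 (about 9 µM by stock and volumes)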. 290,000 tested, 0.75% active. AID 2221. cell-free RecA intein splicing, fluorescence; in the data active = inhibition above about 30%; inconclusive = no clear call, values can overlap the other calls;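 also: 0% = vehicle wells and 100% = reference inhibitor control wells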
Target sequence (P9WHJ3 whole entry, looked up, canonical isoform): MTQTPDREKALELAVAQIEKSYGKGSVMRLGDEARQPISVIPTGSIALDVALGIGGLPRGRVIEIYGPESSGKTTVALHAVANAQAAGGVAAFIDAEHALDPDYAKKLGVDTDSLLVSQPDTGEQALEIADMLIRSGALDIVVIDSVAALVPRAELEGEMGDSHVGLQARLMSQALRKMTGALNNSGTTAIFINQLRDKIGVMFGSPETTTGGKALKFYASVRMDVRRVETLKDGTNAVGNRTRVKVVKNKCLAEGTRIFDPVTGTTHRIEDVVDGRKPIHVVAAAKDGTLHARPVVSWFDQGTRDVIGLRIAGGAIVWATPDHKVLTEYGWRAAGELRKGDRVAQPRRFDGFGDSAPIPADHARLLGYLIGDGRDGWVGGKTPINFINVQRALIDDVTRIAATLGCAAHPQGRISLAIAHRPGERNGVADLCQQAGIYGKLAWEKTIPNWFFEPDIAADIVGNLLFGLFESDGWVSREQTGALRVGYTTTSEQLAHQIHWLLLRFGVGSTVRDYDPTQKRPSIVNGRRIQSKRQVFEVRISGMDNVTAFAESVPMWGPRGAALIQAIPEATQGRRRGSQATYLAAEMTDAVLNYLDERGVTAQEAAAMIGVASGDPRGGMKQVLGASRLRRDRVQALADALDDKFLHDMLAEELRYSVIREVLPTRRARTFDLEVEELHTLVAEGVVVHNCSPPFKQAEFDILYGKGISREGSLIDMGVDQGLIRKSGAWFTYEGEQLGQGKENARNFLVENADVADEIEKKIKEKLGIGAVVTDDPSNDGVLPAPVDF
Arbovirus inh: blocks arbovirus infection. inhibition, % at 10 µM. AID 1251. 200,000 tested, 0.37% active. arbovirus infection cell-based antiviral screen;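 active = inhibition from about 30%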;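 also: bluetongue infection of BSR cells; cell survival read as ATP light after 72 h; 0% = infected wells without compound and 100% = uninfected wells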
Mtb bLac sens: beta-lactam sensitization of Mtb H37Rv; M. tuberculosis H37Rv growth with meropenem, percent inhibition; hits of this screen are not shown here; inhibition, % at 25 µM; 330,000 tested, 0.27% active; AID 434955;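 active = about 74% or more and at least 40 points above the plate without the antibiotic, then above 30% in a dose series; inconclusive = first-round hits that could not be retested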;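 also: growth measured after seven days incubation then overnight dye step; 0% = bacteria only wells and 100% = bacteria with antibiotic; twin plates without the antibiotic show which effects depend on it; some results filed as inactive read as strong as hits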
Mtb growth: M. tuberculosis H37Rv growth inhibitors, H37Rv strain (AID 1626); 220,000 tested, 0.95% active; inhibition, % at 10 µM; hits with a dose series show IC50 in µM; M. tuberculosis H37Rv growth inhibition; higher % means a stronger effect;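 active = confirmed in a dose series; inconclusive = inhibition above 80% but not taken into the dose series; inactive = below 80% or under 30% at every dose of the series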;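 also: bacteria incubated seven days before Alamar blue readout; 0% = bacteria only wells and 100% = bacteria with antibiotic wells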
YopH inh: blocks Yersinia enterocolitica YopH tyrosine phosphatase; 140,000 tested, 0.16% active; fluorescence Ex485/Em525; inhibition, %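 (about 10 µM by stock and volumes)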;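 active = inhibition of 50% or more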;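 also: controls were vehicle for no effect and minimum signal wells for full effect; inactives centre near -20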
Arbovirus inh repeat: recorded beside Arbovirus inh, whose call it bears; inhibition, %; measured here: 10K subset replicate screen; many hits read low in the repeat;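 first of two repeat runs on a subset; 0% = infected and 100% = uninfected wells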
* marks the source's active call; other numbers are inactive results.

Results for CC1CCCN(S(=O)(=O)c2ccc3[nH]c4c(c3c2)CCCC4)C1 (stereo unspecified) ?
RecA splice inh: 0.9; Mtb bLac sens: 11.0

How did O=C(COc1ccc2ccccc2c1Br)N1CCCCC1 do in these assays?
RecA splice inh: 4.8; Mtb bLac sens: 10.3

How did CSc1ccc2[nH]c(=O)cc(C)c2c1 do in these assays?
RecA splice inh: 0.7; Arbovirus inh: 0.9; Mtb bLac sens: -2.2; Mtb growth: 1.4%; YopH inh: -20.5

What do the screens show for `COc1cc(CNC2CCCCCC2)cc(OC)c1O`?
RecA splice inh: -1.5; Arbovirus inh: 1.9; Mtb bLac sens: 1.3; Mtb growth: -4.0%; YopH inh: -18.2

How did Cc1cc(=O)oc2cc(NC(=O)Cc3ccccc3)ccc12 do in these assays?
RecA splice inh: 2.4; Mtb bLac sens: -6.9

How did Cc1ccc(OCc2nc3ccccc3[nH]2)cc1 do in these assays?
RecA splice inh: 2.7; Arbovirus inh: -2.0; Mtb bLac sens: 4.8; Mtb growth: 12.9%; YopH inh: 12.0

How did CCCOc1ccc(C(CC(=O)O)NC(=O)c2cccs2)cc1 (stereo unspecified) do in these assays?
RecA splice inh: 1.3; Arbovirus inh: 11.6; Mtb bLac sens: 0.3; Mtb growth: -2.0%; YopH inh: -51.3

How did O=C(OC(C(=O)Nc1cccc(C(F)(F)F)c1)c1ccccc1)C1CCCCC1 (stereo unspecified) do in these assays?
Arbovirus inh: -21.9; Mtb bLac sens: -4.9; Mtb growth: 1.8%; YopH inh: -20.9

How did CC1(C)CC(=O)C=C(Nc2ccc3c(c2)CCC3)C1 do in these assays?
RecA splice inh: 4.8; Mtb bLac sens: 2.9

Results for Clc1cccc(Cl)c1Cn1nnc(N2CCCC2)n1 ?
RecA splice inh: -1.7; Mtb bLac sens: 0.3; Mtb growth: -4.5%

Results for Cc1ccccc1OCC(=O)N/N=C/c1cccc(Oc2ccc([N+](=O)[O-])cc2[N+](=O)[O-])c1 ?
RecA splice inh: 21.6; Arbovirus inh: -3.0; Mtb growth: 23.9%; YopH inh: -15.9

How did CC(=O)Nc1cccc2ncccc12 do in these assays?
RecA splice inh: 3.8; Arbovirus inh: 1.7; Mtb bLac sens: -3.3; Mtb growth: 3.3%; YopH inh: -22.1

Results for C/C(CC(=O)Nc1ccccc1[N+](=O)[O-])=N\NC(=O)COc1ccccc1C ?
RecA splice inh: 69.4*; Arbovirus inh: -4.2; Mtb bLac sens: -6.9; Mtb growth: 7.0%; YopH inh: -22.1

How did C/C(=N\Nc1ccc(S(N)(=O)=O)cc1[N+](=O)[O-])c1ccc2c(c1)OCO2 do in these assays?
Arbovirus inh: 1.2; Mtb growth: 2.4%

What do the screens show for `O=C(c1c[nH]c(C(=O)C(Cl)(Cl)Cl)c1)c1c(F)cccc1F`?
RecA splice inh: 14.3; Mtb bLac sens: -1.9

Results for COCCNC(=O)Cc1c(C)c2c(cc(C)c3c(C(C)(C)C)coc32)oc1=O ?
RecA splice inh: 3.8; Mtb bLac sens: 38.5

Results for C/C(CC1(O)/C(=N/O)CCc2nonc21)=N\O (stereo unspecified) ?
RecA splice inh: -3.5; Arbovirus inh: -2.4; Mtb bLac sens: 2.2; Mtb growth: -8.2%; YopH inh: -31.5

Results for NC(=O)c1c(NC(=O)CSc2nc(N)cc(=O)[nH]2)sc2c1CCCC2 ?
RecA splice inh: -1.8; Mtb bLac sens: -3.5; Mtb growth: -6.3%

Results for CCN(CC)S(=O)(=O)c1cc(NC(=O)C2=COCCO2)ccc1Cl ?
RecA splice inh: -6.5; Mtb bLac sens: -15.4

Results for C/C=C(\C)C(=O)NCCN1C2=NC[C@@H](C)N2C[C@@H]1Cc1ccc(OC)cc1 ?
RecA splice inh: -1.4; Arbovirus inh: 3.8; Mtb bLac sens: -6.3; Mtb growth: -8.8%

What do the screens show for `Cc1cccc(N2Cc3ccc(Br)cc3C2)c1`?
RecA splice inh: 6.6; Mtb bLac sens: -1.7

How did Cc1cc(NC(=O)OC2CCCCC2)ccc1[N+](=O)[O-] do in these assays?
RecA splice inh: 13.0; Mtb bLac sens: 0.0

How did CCOC(=O)Nc1ccc(S(=O)(=O)N2CCOCC2)cc1 do in these assays?
RecA splice inh: -0.1; Arbovirus inh: 1.2; Mtb bLac sens: inconclusive; Mtb growth: -5.5%; YopH inh: -0.8

What do the screens show for `CC1CC2=C(NC(=S)NC2c2ccc(F)cc2)/C(=C/c2ccc(F)cc2)C1` (stereo unspecified)?
RecA splice inh: 6.9; Arbovirus inh: 8.2; Mtb bLac sens: -8.0; Mtb growth: -4.3%; YopH inh: -29.8

Results for CCCCC(CC)C(=O)Nc1cc([N+](=O)[O-])ccc1F (stereo unspecified) ?
RecA splice inh: 1.6; Arbovirus inh: 9.3; Mtb bLac sens: -4.0; Mtb growth: 8.7%

What do the screens show for `COc1cc(NC(=O)CSc2nnc3c(C)cc4c(C)ccc(C)c4n23)c(C(=O)O)cc1OC`?
RecA splice inh: 6.3; Arbovirus inh: 11.3; Mtb bLac sens: -8.9; Mtb growth: -8.0%

What do the screens show for `O=C(/C(C=Nc1cccc(C(F)(F)F)c1)=C(/O)c1ccco1)C(F)(F)F`?
RecA splice inh: -1.9; Arbovirus inh: -3.1; Mtb bLac sens: -2.8; Mtb growth: 0.1%; YopH inh: -26.2

Results for CC(=O)Nc1ccc(-c2csc(NC(=O)Cc3ccccc3F)n2)cc1 ?
RecA splice inh: 4.5; Mtb bLac sens: 17.4

How did Cc1c(/C=N/NC(=O)c2cc(Br)ccc2O)c(=O)n(C)c(=O)n1C do in these assays?
RecA splice inh: -2.7; Mtb bLac sens: 7.9

What do the screens show for `c1ccc2nc3[nH]cnc3nc2c1`?
RecA splice inh: 0.4; Arbovirus inh: 13.3; Mtb bLac sens: -1.0; Mtb growth: -0.5%; YopH inh: 0.7

How did COC(=O)Cn1cnc2c1c(=O)n(C)c(=O)n2C do in these assays?
RecA splice inh: -5.1; Arbovirus inh: 2.7; Mtb bLac sens: -8.6; Mtb growth: 1.6%; YopH inh: 3.7

Results for CCN1CCN(C(=O)c2ccc(CN(c3ccccc3)S(=O)(=O)c3ccccc3)cc2)CC1 ?
RecA splice inh: 1.8; Arbovirus inh: -2.4; Mtb bLac sens: -0.3; Mtb growth: 0.8%; YopH inh: -31.8

What do the screens show for `COC(=O)C1=C(C(=O)c2ccccc2)C(c2ccc(OC)c(OC)c2)Nc2nnnn21` (stereo unspecified)?
RecA splice inh: 0.3; Arbovirus inh: 2.7; Mtb bLac sens: -2.8; YopH inh: -1.0

How did CCOC(=O)c1c(NC(=O)CCC(=O)N2CCOCC2)sc2c1CC(C)(C)OC2 do in these assays?
RecA splice inh: -0.6; Arbovirus inh: 4.5; Mtb bLac sens: -10.8; Mtb growth: -8.1%; YopH inh: -105.6

Results for Cc1nn(-c2ccccc2)c(Cl)c1C1C(C#N)=C(N)OC2=C1C(=O)CCC2 (stereo unspecified) ?
RecA splice inh: 3.9; Arbovirus inh: 1.9; Mtb bLac sens: -3.1; Mtb growth: 1.1%; YopH inh: 0.9

How did FC(F)(F)c1cccc(Oc2nc(-c3ccccc3)nnc2C(F)(F)F)c1 do in these assays?
RecA splice inh: 57.8*; Arbovirus inh: 4.3; Mtb bLac sens: 9.6; Mtb growth: 8.0%; YopH inh: -24.3

In the list so far, these have an aryl thioether with sulfur outside any ring:
How did CSc1ccc2[nH]c(=O)cc(C)c2c1 do in these assays?
RecA splice inh: 0.7; Arbovirus inh: 0.9; Mtb bLac sens: -2.2; Mtb growth: 1.4%; YopH inh: -20.5

Results for NC(=O)c1c(NC(=O)CSc2nc(N)cc(=O)[nH]2)sc2c1CCCC2 ?
RecA splice inh: -1.8; Mtb bLac sens: -3.5; Mtb growth: -6.3%

What do the screens show for `COc1cc(NC(=O)CSc2nnc3c(C)cc4c(C)ccc(C)c4n23)c(C(=O)O)cc1OC`?
RecA splice inh: 6.3; Arbovirus inh: 11.3; Mtb bLac sens: -8.9; Mtb growth: -8.0%

Remaining list, next part
Results for CS(=O)(=O)N(CC(=O)N1CCN(c2ccccc2F)CC1)C1CCCCC1 ?
RecA splice inh: 0.8; Arbovirus inh: 1.4; Mtb bLac sens: 4.0; Mtb growth: -7.1%; YopH inh: -30.8

What do the screens show for `O=C(Cc1ccccc1[N+](=O)[O-])NCc1ccc2c(c1)OCO2`?
RecA splice inh: 0.3; Arbovirus inh: 2.8; Mtb bLac sens: -6.8; Mtb growth: 10.4%; YopH inh: -3.9

What do the screens show for `CN(C)C(Cc1ccccc1)C(=O)c1ccccc1` (stereo unspecified)?
RecA splice inh: 1.4; Arbovirus inh: 9.6; Mtb bLac sens: 3.5; Mtb growth: -1.8%; YopH inh: -23.9

Results for Cc1ccc(CNC(=O)COC(=O)C2CCN(S(=O)(=O)c3cccs3)CC2)cc1 ?
RecA splice inh: -0.1; Arbovirus inh: 3.7; Mtb bLac sens: -1.6; Mtb growth: -0.1%

What do the screens show for `CC1=C(C(=O)Nc2ccc(C)cc2)C(c2ccco2)NC(=O)N1` (stereo unspecified)?
RecA splice inh: 1.9; Arbovirus inh: 0.7; Mtb bLac sens: -8.2; Mtb growth: -3.7%; YopH inh: -12.5

Results for COc1ccccc1NC(=O)NCc1ccco1 ?
RecA splice inh: 0.5; Arbovirus inh: -4.0; Mtb bLac sens: -7.1; Mtb growth: -6.4%

Results for COc1ccc(C(C)=O)cc1CC(=O)NC1CCCCCC1 ?
RecA splice inh: -1.7; Mtb bLac sens: 0.1

How did CC[n+]1c(/C=C(\C)OC)sc2ccccc21 do in these assays?
Arbovirus inh: -0.6; Mtb growth: -5.8%

How did COc1cc(/C=C2\SC(N)=NC2=O)cc(OC)c1 do in these assays?
RecA splice inh: -0.3; Mtb bLac sens: -7.3

What do the screens show for `Cc1cc(C)c2oc(C(=O)Nc3ccc(S(=O)(=O)Nc4nccc(C)n4)cc3)cc(=O)c2c1`?
RecA splice inh: -1.6; Mtb bLac sens: 2.2

How did Cc1cc(/C=N/Nc2ccc([N+](=O)[O-])cn2)c(C)n1-c1cccc(C(=O)O)c1 do in these assays?
RecA splice inh: -2.4; Mtb bLac sens: -3.3; Mtb growth: -5.4%

What do the screens show for `COc1cccc(CN(C)S(=O)(=O)c2cccs2)c1`?
RecA splice inh: 1.7; Mtb bLac sens: 2.2

Results for CNC(=O)c1ccsc1NC(=O)CCS(=O)(=O)c1ccc(F)cc1 ?
RecA splice inh: 0.1; Mtb bLac sens: -4.5

Results for CCN(CC)S(=O)(=O)c1cccc(-c2nnc(SCc3nc4ccccc4s3)o2)c1 ?
RecA splice inh: 0.1; Arbovirus inh: -1.4; Mtb bLac sens: -7.5; Mtb growth: 2.9%; YopH inh: -14.7

What do the screens show for `CC(C)CCOC(=O)C[N+](C)(C)CCOC1CC2CCC1(C)C2(C)C` (stereo unspecified)?
RecA splice inh: 0.3; Arbovirus inh: 3.3; Mtb bLac sens: 93.4; Mtb growth: 36.0%

Results for CC1CCCN(C(=O)CSc2nnc(-c3ccc(O)cc3)o2)C1 (stereo unspecified) ?
RecA splice inh: -0.7; Mtb bLac sens: 99.8

What do the screens show for `O=C(NCCc1ccccc1)c1c(F)cccc1F`?
RecA splice inh: 0.8; Arbovirus inh: -6.1; Mtb bLac sens: 2.0; Mtb growth: 3.4%

What do the screens show for `COc1ccc(Cc2nc3ccccc3n2CC(=O)N/N=C/c2ccc(C)cc2O)cc1OC`?
RecA splice inh: -3.2; Arbovirus inh: -15.4; Mtb bLac sens: 12.1; Mtb growth: -1.2%; YopH inh: -2.8

Results for COC(=O)c1cc(OC)c(OC)cc1NC(=O)c1ccc(Br)o1 ?
RecA splice inh: -0.8; Arbovirus inh: 1.5; Mtb bLac sens: 49.4; Mtb growth: -1.2%; YopH inh: 21.0; Arbovirus inh repeat: 0.8

How did Cc1ccc(C)c(NC(=O)C2Cc3ccccc3CN2C(=O)OCc2ccccc2)c1 (stereo unspecified) do in these assays?
RecA splice inh: 0.3; Arbovirus inh: 12.6; Mtb growth: 1.7%; YopH inh: -31.1

Results for O=C(N/N=C/c1c(O)n(-c2ccc(Cl)cn2)c(=O)c2ccccc12)C1CC1 ?
RecA splice inh: -2.2; Arbovirus inh: -14.2; Mtb bLac sens: 0.8; Mtb growth: 2.2%; YopH inh: -27.8

What do the screens show for `COc1cc(C(=O)NC(=S)Nc2ccccc2N2CCCC2)cc(OC)c1OC`?
RecA splice inh: 7.7; Mtb bLac sens: 94.0

What do the screens show for `COC(=O)C(C)Oc1ccc2c3c(c(=O)oc2c1)CCCCC3` (stereo unspecified)?
RecA splice inh: -0.9; Arbovirus inh: -0.3; Mtb bLac sens: 99.8; Mtb growth: 4.3%; YopH inh: -36.2

Results for CCOc1ccc(N(CC(=O)Nc2cc(C)ccc2C)S(=O)(=O)c2c(C)[nH]c(=O)[nH]c2=O)cc1 ?
RecA splice inh: -0.1; Mtb bLac sens: -3.2; Mtb growth: 1.5%

A portion of the library; count on the stated rates, not on these rows.
